# RanGTP-Imp inh: inhibitors of RanGTP-importin-beta interaction, primary screen, biochemical, FRET, CFP-Ran, YFP-importin-beta, homogeneous | inhibition, % (no concentration beside the values) | cell-free CFP-Ran/YFP-importin-beta FRET ratio | actives 1.1% (n = 300,000) | AID 2216, 2009;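 active = most replicates above 15%; inconclusive = exactly half above 15%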;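 note: 0% = DMSO wells and 100% = Ran loaded with GDP instead of GTP; wells of about 40 µL received 100 nL stock; the first replicate is given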
# HNF4A DNA FP: change in binding of human HNF4A to DNA, primary screen, biochemical, fluorescence polarization, FITC-DNA. Hepatocyte nuclear factor 4-alpha (Homo sapiens), P41235. 1 h. activity change, % at 10 µM. actives 0.3% (n = 360,000). AID 1224865, 2016; in the data active = activity change above about 30%, passing the limit was not always enough;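 note: controls were the assay level and a saturating level of protein; the project sought stronger binding though the title names inhibitors; some compounds called inactive have numbers as strong as hits; positive values seem to mean higher polarization but the record does not say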
# Target sequence (P41235 whole entry, looked up): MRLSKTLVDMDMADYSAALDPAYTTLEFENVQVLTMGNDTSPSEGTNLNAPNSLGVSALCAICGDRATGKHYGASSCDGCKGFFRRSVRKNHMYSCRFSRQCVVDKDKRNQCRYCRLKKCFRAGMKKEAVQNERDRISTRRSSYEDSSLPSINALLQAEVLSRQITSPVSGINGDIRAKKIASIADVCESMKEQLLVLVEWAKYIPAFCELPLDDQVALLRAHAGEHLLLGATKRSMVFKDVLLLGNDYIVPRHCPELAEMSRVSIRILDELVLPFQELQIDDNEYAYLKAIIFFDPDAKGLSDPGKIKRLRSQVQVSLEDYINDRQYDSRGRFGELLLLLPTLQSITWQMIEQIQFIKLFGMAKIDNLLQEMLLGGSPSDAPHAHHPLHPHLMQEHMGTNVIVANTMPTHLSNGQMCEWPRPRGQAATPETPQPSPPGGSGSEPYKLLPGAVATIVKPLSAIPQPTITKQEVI
# MLL AF4-AF9 inh: inhibitors of AF4 peptide binding to AF9, primary screen, biochemical, AlphaScreen, biotin-AF4 peptide, FLAG-AF9, single point. Protein AF-9 (Homo sapiens), P42568. inhibition, % at 10 µM. actives 0.47% (n = 350,000). AID 651704, 2012;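 active = every replicate reaching a set inhibition limit, whatever the replicate mean, cut at about 25% in these data; inconclusive = mean inhibition reaches that limit but some replicates miss it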;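 note: 0% = plate neutral control median and 100% = total signal loss; the record names both 10 and 1 µM as test concentration; the first replicate is given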
# Target sequence (P42568 whole entry, looked up): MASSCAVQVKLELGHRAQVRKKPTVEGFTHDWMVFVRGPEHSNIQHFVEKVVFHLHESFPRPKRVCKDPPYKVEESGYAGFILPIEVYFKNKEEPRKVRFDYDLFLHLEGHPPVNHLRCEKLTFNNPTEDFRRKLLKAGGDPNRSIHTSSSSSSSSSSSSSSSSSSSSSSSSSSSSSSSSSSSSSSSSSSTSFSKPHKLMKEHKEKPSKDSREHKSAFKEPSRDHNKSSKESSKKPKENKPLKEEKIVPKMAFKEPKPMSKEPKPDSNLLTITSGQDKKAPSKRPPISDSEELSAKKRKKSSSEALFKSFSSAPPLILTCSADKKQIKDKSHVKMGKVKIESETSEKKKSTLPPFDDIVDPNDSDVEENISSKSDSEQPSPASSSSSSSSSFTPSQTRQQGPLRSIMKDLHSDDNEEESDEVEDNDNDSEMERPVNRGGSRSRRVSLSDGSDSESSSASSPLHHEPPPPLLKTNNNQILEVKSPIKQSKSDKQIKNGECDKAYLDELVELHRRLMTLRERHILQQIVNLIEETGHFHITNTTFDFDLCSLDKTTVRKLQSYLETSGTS
# UCH37 inh: inhibitors of human UCH37 deubiquitinase, primary screen, biochemical, Ub-AMC cleavage, fluorescence | purified proteasome/UCH37 | inhibition, % (no concentration beside the values) | actives 0.33% (n = 330,000);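 active = mean of two replicates above 20%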;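 note: 0% = compound-free wells with enzyme and 100% = wells lacking proteasome; stock transfer was 100 nL into about 20 µL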
#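 Material: human UCH37 enzyme supplied as purified proteasome complex / Amount: 0.15 nM proteasome as dispensed / Buffer or medium: pH 7.4 Tris-HCl (50 mM) with ovalbumin, ATP-MgCl2, DTT / Times: preincubation 30 min, reaction 25 min, room temperature / Technique: AMC fluorescence from Ub-AMC cleavage, excitation 355 nm, emission 460 nm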
# Vif TR-FRET: inhibitors of Vif binding to APOBEC3G peptide, primary screen, biochemical, TR-FRET, GST-Vif 1-94, biotin-A3G peptide, dose response retest (AID 1117319); Virion infectivity factor (Human immunodeficiency virus type 1 group M subtype B (isolate …; TR-FRET GST-Vif / biotin-A3G peptide binding; higher % means a stronger effect; test concentration not given here; strong numbers were not always called active; one-dose inhibition, %; IC50 in µM for titrated hits; actives 0.57% (n = 260,000);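 active = above the screen mean plus three standard deviations and confirmed in dose response; inconclusive = results disagree or hit not tested in dose response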;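 note: Vif residues 1-94 fused to GST binding biotinylated APOBEC3G peptide 110-148; 0% = full assay without inhibitor and 100% = GST in place of GST-Vif; retest series ran down from 100 µM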
# E coli growth: E. coli growth inhibition, primary screen, OD600; Escherichia coli growth, 23 h; stronger effect = lower value; OD600 absorbance (concentration not given with the values); actives 0.21% (n = 330,000);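 active = OD600 absorbance below the run mean of sample wells minus 3.6 SD, in any replicate, cut at about 0.56 in these data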;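 note: stock transfer was 300 nL into about 60 µL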
# FGF22 binding: binders of human FGF22 protein, primary screen, FGF22 synaptogenesis inhibitor project, biophysical, thermal shift, single point; Fibroblast growth factor 22 (Homo sapiens), Q9HCT0; recombinant FGF22 thermal shift, SYPRO orange fluorescence; percent of sucrose octasulfate shift, DMSO zero; calls only at 9.99 µM; actives 1.5% (n = 340,000); AID 651658, 2012;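 active = melting point raised past a set limit in the mean and every replicate; inconclusive = no clear call; three in four hits are not shown here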
# * hit, by the source's call; i = inactive; ? = inconclusive; · = not tested or not shown. Only part of the results is shown; count on the stated rates, not on these rows.
SMILES,RanGTP-Imp inh,HNF4A DNA FP,MLL AF4-AF9 inh,UCH37 inh,Vif TR-FRET,E coli growth,FGF22 binding
COc1cc(/C=C/C(=O)OCC(=O)NC(=O)NC(C)(C)C)ccc1OCC#N,-1.4,-2.4,5.8,-13.2,9.4%,0.614,i
COc1cc(N=CC2=C(O)c3ccccc3C2=O)cc(OC)c1,2.1,-1.3,-1.3,0.8,-4.8%,0.69,i
CC(=O)Nc1ccc(Oc2nc(C)cc(C)n2)cc1,-0.9,0.5,·,5.3,1.1%,0.743,·
COc1ccc(N(C(=O)c2ccncc2)S(=O)(=O)c2cccs2)cc1,1.4,4.1,-7.7,2.3,3.4%,0.657,i
Cc1ccc(S(=O)(=O)N(C)C)cc1NC(=O)Nc1c(-c2ccccc2)noc1C,2.0,-56.4,-2.7,4.7,-5.6%,0.627,i
O=C(Oc1ccc(-c2csnn2)cc1)C1CC1,4.5,5.1,-1.5,2.8,1.1%,0.671,i
COc1ccc(S(=O)(=O)NCC(c2cccnc2)N2CCN(c3ccccc3)CC2)cc1C (centres undefined),?,-3.2,·,5.4,22.4%,0.72,·
CC(=O)c1ccc(Oc2cc(C)nc(N3CCOCC3)n2)cc1,?,-2.0,·,·,30.2%,·,·
O=C(O)c1cc([N+](=O)[O-])ccc1Nc1ccccc1,-2.3,1.5,28.4*,14.2,?,0.634,i
CCOC(=O)[C@]12CCC=C1N(Cc1ccc(Cl)cc1Cl)C(=O)[C@H](CC(=O)NCCCN1CCCC1=O)C2,·,-4.6,1.1,·,·,·,i
O=C(NCc1ccco1)c1ccc(Cn2c(=O)c3sccc3n(Cc3cccc(F)c3)c2=O)cc1,4.6,-1.1,-1.3,5.8,-6.5%,0.774,i
Cc1ccc(C)c(CSc2nnc(C)c(=O)n2N)c1,-0.1,-3.9,0.0,3.5,-5.2%,0.719,i
Cc1[nH]n(C(N)=S)c(=O)c1N=Nc1cc(-c2ccc(Br)cc2)[nH]n1,-0.7,2.2,-0.2,6.8,11.6%,0.703,i
COc1ccc(N2C(=O)CCC(C(=O)NCc3ccccn3)C2c2ccc(OC)c(OC)c2)cc1 (centres undefined),-4.1,2.3,·,-1.8,0.8%,0.686,·
CC1=C(C(=O)N2CCOCC2)C(c2c(F)cccc2F)NC(=O)N1 (centres undefined),-2.4,-1.0,-1.2,2.1,·,0.704,i
COc1cc(/C=N/NC(=O)C(=O)NCC2CCCO2)cc(Cl)c1O (centres undefined),5.9,0.8,-0.2,·,2.0%,·,i
CC1=CC(=O)O[C@@H]1[C@@]1(C)C[C@H]2OC(=O)C[C@H]3[C@@H](C)C(=O)C(O)=C1[C@@]23CO,2.1,-5.7,-2.3,5.2,·,0.704,i
CCOC(=O)c1c(N)c(C#N)c2n1CCCC2,?,1.9,·,1.5,1.8%,0.732,·
Cc1ccc(CN(C(=O)Cn2nnc3ccccc32)C(C(=O)NCc2ccco2)c2cccs2)cc1 (centres undefined),-0.2,-1.5,·,5.2,73.2%,0.776,·
COC(=O)c1sccc1NC(=O)CSc1ccccc1NS(=O)(=O)c1ccc(Br)cc1,-0.3,1.2,·,0.6,-10.2%,0.754,·
CCOC(=O)c1cnn(-c2ccc(C)cc2)c1N,-1.8,-2.0,·,1.4,-0.3%,0.754,·
CCNc1nnc(-c2ccncc2)s1,-2.1,1.0,·,-354.3,-7.0%,0.716,·
CC(=O)c1cccc(NC(=O)COc2ccccc2C(=O)c2cc(C#N)c(=O)n(C3CCCCC3)c2)c1,1.7,-2.8,·,3.1,-4.8%,0.713,·
COc1ccc(CCNC(=O)C2CCCN(S(=O)(=O)c3ccc(F)cc3)C2)cc1 (centres undefined),-2.3,0.5,-1.6,1.1,·,0.702,i
COc1ccc(C(=O)O/N=C(\N)c2ccncc2)cc1OC,-1.1,-0.4,·,1.9,·,0.686,·
CCOC(=O)c1[nH]cnc1C(=O)NC1CCCCC1,-2.5,1.1,·,4.0,1.7%,0.71,·
CCOn1c(SC(C)C)nc2ccccc2c1=O,-4.1,3.5,·,5.7,-1.1%,0.681,·
CCc1nonc1NC(=O)c1oc2cc(C)c(C)cc2c1C,-0.1,-1.6,2.3,-3.1,·,0.719,i
COC(=O)c1ccc(S(=O)(=O)N2CCCCC2)o1,-2.5,-2.1,·,2.2,21.6%,0.716,·
Nc1cc(N)c(OCC(F)(F)F)cc1OCC(F)(F)F,-6.8,-1.2,·,4.1,9.47µM*,0.744,·

# Structural class, the compounds so far containing a Cl atom (two)
SMILES,RanGTP-Imp inh,HNF4A DNA FP,MLL AF4-AF9 inh,UCH37 inh,Vif TR-FRET,E coli growth,FGF22 binding
CCOC(=O)[C@]12CCC=C1N(Cc1ccc(Cl)cc1Cl)C(=O)[C@H](CC(=O)NCCCN1CCCC1=O)C2,·,-4.6,1.1,·,·,·,i
COc1cc(/C=N/NC(=O)C(=O)NCC2CCCO2)cc(Cl)c1O (centres undefined),5.9,0.8,-0.2,·,2.0%,·,i

# (continued)
SMILES,RanGTP-Imp inh,HNF4A DNA FP,MLL AF4-AF9 inh,UCH37 inh,Vif TR-FRET,E coli growth,FGF22 binding
COc1ccc(F)cc1S(=O)(=O)NC(Cc1ccccc1)C(N)=O (centres undefined),1.0,1.7,·,2.7,-5.4%,0.761,·
C=CCOc1ccc(-c2nc3c(c(=O)[nH]c(=O)n3Cc3ccccc3)n2CCCOC)cc1,-1.6,1.9,-0.1,·,·,·,i
CCc1nc(NC(C)(C)C)c2cnn(-c3ccccc3)c2n1,?,3.6,0.6,·,-8.5%,·,i
CCOC(=O)C1=C(c2ccccc2)NC(=S)NC1c1ccc(Cl)c([N+](=O)[O-])c1 (centres undefined),3.6,·,·,1.3,24.1%,0.701,·
O=C(c1ccc(C23CC4CC(CC(C4)C2)C3)o1)N1CCOCC1,-6.8,-1.9,·,4.7,0.7%,0.716,·
CCOC(=O)c1c(NS(=O)(=O)Cc2ccccc2)sc2c1CCCC2,-14.8,2.0,·,3.6,4.4%,0.652,·
CCN1C(=O)/C(=C\c2cccc(OC(=O)c3ccco3)c2)SC1=S,2.3,2.7,3.1,1.3,·,0.713,i
COc1ccc([C@H]2CC(=O)C=C(c3cccc(C(F)(F)F)c3)C2)cc1,·,2.3,-2.7,1.5,·,0.759,i
CCN(C(=O)COC(=O)c1cc(S(=O)(=O)N2CCOCC2)c(Cl)cc1Cl)C1CCS(=O)(=O)C1 (centres undefined),?,-1.7,-0.9,4.6,2.2%,0.663,i
COc1cc2c(cc1OC)C(C)N(C(=O)c1cc3c(s1)-c1c(C)cccc1OC3)CC2 (centres undefined),2.1,5.3,1.7,-203.0,-15.3%,0.801,i
Cc1cc(C)c(C)c(S(=O)(=O)NCC(=O)O)c1C,2.4,1.7,·,3.5,-7.5%,0.751,·
COc1ccc(Cl)cc1NC(=S)NC(=O)c1ccc2c(c1)OCO2,-0.5,2.1,3.6,5.2,·,0.702,i
O=C(CCCN1C(=O)c2ccccc2C1=O)Nc1ccccn1,?,4.3,·,0.3,29.5%,0.694,·
O=S(=O)(NCC1CCCO1)c1ccc(Br)cc1 (centres undefined),5.8,-4.4,0.1,0.2,17.5%,0.639,i
COc1ccc(OCCC(=O)N2CCCCC2)cc1,-4.5,0.1,·,1.1,-4.7%,0.692,·
CCOc1nc(Nc2ccc(Cl)cc2)nc(OCC)n1,-4.8,-1.4,-9.3,4.8,·,0.593,·
OC(c1cccc(Cl)c1)c1nc(-c2ccc(Cl)cc2)cs1 (centres undefined),·,-7.9,-4.9,·,·,·,i
Cc1ccc(Cn2cc(-c3ccccc3)nn2)cc1,1.9,-2.7,-2.7,1.5,·,0.677,i
CCc1ccc(NC(=O)CCn2cccc2)cc1,-0.8,0.8,·,0.6,5.9%,0.663,·
O=C(Nc1ccc2c(c1)C(=O)OC2)c1ccc(Cl)cc1Cl,-2.8,0.6,?,3.1,·,0.681,i
CC(C)(C)c1ccc(NC(=O)Nc2ccc(OCC(=O)N3CCOCC3)cc2)cc1,0.7,0.8,2.2,2.0,0.9%,0.712,i
COc1ccccc1CNC(=O)c1cccc(S(=O)(=O)N2CCN(C)CC2)c1,-1.3,0.7,-8.4,5.5,5.9%,0.683,i
O=C(NCCc1ccc(Cl)cc1)C1CCN(S(=O)(=O)N2CCC3(CC2)OCCO3)CC1,-2.7,0.7,·,-0.9,-0.8%,0.707,·
O=C1CCC(CCC(=O)N2CCCC(C(=O)c3cccc(C(F)(F)F)c3)C2)=NN1 (centres undefined),-1.8,6.9,·,0.2,-0.5%,0.686,·
O=C(Cn1cc(C(=S)N2CCOCC2)c2ccccc21)N1CCOCC1,-1.1,2.2,·,3.8,-1.6%,0.749,·
O=C1CC(C(=O)N2CCC(N3CCC(C(=O)NC4CC4)CC3)CC2)c2ccccc21 (centres undefined),0.2,1.0,-0.7,-2.1,-9.0%,0.638,i
Cc1cccc(Nc2ncnc3ccc(Br)cc23)c1,5.0,1.9,-10.5,-0.7,·,0.694,i
CCc1noc(C)c1C(=O)N1CCN(c2cccc(C)c2C)CC1,-0.3,9.6,-0.8,2.4,12.7%,0.713,i
O=C(Nc1cccc(Cl)c1)Nc1nnc(-c2ccccc2)o1,-0.7,0.5,·,2.9,-3.2%,0.684,·
COc1ccc(N2CCN(C(CNS(=O)(=O)c3ccc(C)cc3)c3ccccc3)CC2)cc1 (centres undefined),·,1.1,10.8,2.5,9.8%,0.741,i
Nc1nc(SCc2ccccc2Cl)nc2nc3c(cc12)CCCC3,7.2,6.9,·,-7.8,11.4%,0.689,·
C=CCC1(CC=C)CCCN1C(=O)c1cc(COc2cncc(Cl)c2)on1,1.6,-0.5,-0.6,·,-6.7%,·,i
O=C(NCCN1C(=O)S/C(=C\c2ccccc2)C1=O)c1cc(S(=O)(=O)N2CCOCC2)c(Cl)cc1Cl,-1.4,6.3,·,5.6,·,0.681,·
Cc1ccnc(NS(=O)(=O)c2ccc(N3C(=O)c4c(Cl)c(Cl)c(Cl)c(Cl)c4C3=O)cc2)n1,0.7,-5.1,·,3.5,·,0.681,·
NS(=O)(=O)c1ccc(-c2ccc(C=NC3CCS(=O)(=O)C3)o2)cc1 (centres undefined),4.6,4.3,·,-7.5,4.5%,0.67,·
OC[C@@H]1CN(Cc2cccnc2)C[C@H](n2cnc3c(NC4CCCC4)ncnc32)O1,·,-1.6,-1.1,·,·,·,i
CCCCOCCCNC(=O)C[C@@H]1C[C@@]2(C(=O)OC)CCCCC=C2N(CCC2=CCCCC2)C1=O,·,5.5,1.2,·,·,·,·
CCOCCCNC(=O)c1ccc2c(c1)N=C(CC)c1cc(Br)ccc1S2,-2.6,-0.8,-5.3,5.2,4.9%,0.695,·
CCCC(C(=O)NC(C)(C)C)N(Cc1ccc(F)cc1)C(=O)c1snc(C(N)=O)c1N (centres undefined),4.0,4.0,-3.2,-36.0,-9.7%,0.697,i
CN(CC(=O)N1CCCC1)S(=O)(=O)c1cccc(Cl)c1,-1.3,3.3,0.4,0.7,·,0.66,i
CCCCCCc1cc2cc(C(=O)Nc3ccccc3)c(=O)oc2cc1O,116.9*,2.6,·,-64.4,·,0.652,·
O=C(O)c1ccc(Oc2ccc(S(=O)(=O)c3ccc(C(=O)O)c(C(=O)O)c3)cc2)cc1,-1.0,-5.2,3.7,7.0,·,0.639,i
COc1ccc(C)cc1NC(=O)CSc1nnc(CC(=O)Nc2ccccc2F)n1C,0.3,3.1,-0.6,1.2,2.6%,0.709,i
